Bioassay records from PubChem BioAssay.
NPYLR7 agonist: mosquito NPYLR7 agonism | HEK293T NPYLR7/Galpha15, GCaMP6s calcium fluorescence | activation, % at 10 µM | hit rate 0.15% among 270,000 | AID 1259423; in the data active means activation above about 40%;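 further: 0% = vehicle and 100% = reference agonist at the receptor; some compounds past the cut are filed as inactive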
NPYLR7 agonist max-min: also measured in NPYLR7 agonist; calls as there; activation, %; measured here: Max-Min RFU normalised activation; some inactives read as strong as hits;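 span of the calcium signal over five minutes; 0% = vehicle and 100% = native peptide agonist; compound fluorescence can raise it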
Numbers without * were called inactive; & = joins results of further samples. A portion of the library; count on the stated rates, not on these rows.

The line under a structure holds: NPYLR7 agonist | NPYLR7 agonist max-min
- Cc1ccc(CSc2nccn(-c3ccc(F)c(F)c3)c2=O)cc1
    4.9 | 13.3
- CCOC(=O)c1c(C2CC2)csc1N
    -2.3 | -2.4
- CCCc1cc(=O)[nH]c(-n2nc(C)cc2NC(=O)c2ccc(C(F)(F)F)cc2)n1
    12.0 | 9.7
- CCN(CC(=O)NC(C)(C)C)c1nc2ccccc2s1
    -0.4 | -1.6
- O=C(Nc1ccc2ccccc2n1)c1ccc(C(F)(F)F)nc1
    -1.5 | 14.3
- CC(C)CN(C(=O)COc1ccc2c(c1)OCO2)C1CCS(=O)(=O)C1 (centres undefined)
    13.8 | 10.9
- O=C(NCCn1ncc2c(=O)n(Cc3ccc([N+](=O)[O-])cc3)cnc21)C1CC1
    -1.0 | -4.8
- O=NN1c2ccccc2NC(=O)C1CC(=O)Nc1ccccc1 (centres undefined)
    -3.9 | -10.5
- Cc1cc2c(cc1C)NC(c1cc(F)ccc1F)C1C(=O)CC(C)(C)CC1=N2 (centres undefined)
    -8.1 | -16.6
- Cc1noc(C)c1C(=O)Nc1nc(OCC(F)(F)F)cnc1/C=C\c1ccccc1
    -35.8 | -38.9
- O=C(NN1C(=O)C2C3C=CC(C4CC34)C2C1=O)c1ccc(Br)cc1 (centres undefined)
    1.4 | -0.7
- Cc1csc2nc(CSc3nnc(-c4cc5c(s4)CCC(C)C5)o3)cc(=O)n12 (centres undefined)
    0.6 | -2.6
- Cc1nn(-c2ccc(F)cc2)c2nc(Cc3ccccc3)nc(N3CCCN(C(=O)CCCl)CC3)c12
    8.6 | 8.2
- CCCNC(=O)CSc1nnc(SCC(=O)NCc2ccco2)s1
    17.4 | 11.6
- Cc1oc2cc([N+](=O)[O-])c(O)c([N+](=O)[O-])c2c1C(=O)c1ccccc1
    -1.4 | -3.3

Shown with each value named: 4 of the compounds above
molecule: O=C(NCCn1ncc2c(=O)n(Cc3ccc([N+](=O)[O-])cc3)cnc21)C1CC1
  NPYLR7 agonist: -1.0
  NPYLR7 agonist max-min: -4.8

molecule: O=NN1c2ccccc2NC(=O)C1CC(=O)Nc1ccccc1 (centres undefined)
  NPYLR7 agonist: -3.9
  NPYLR7 agonist max-min: -10.5

molecule: Cc1cc2c(cc1C)NC(c1cc(F)ccc1F)C1C(=O)CC(C)(C)CC1=N2 (centres undefined)
  NPYLR7 agonist: -8.1
  NPYLR7 agonist max-min: -16.6

molecule: Cc1noc(C)c1C(=O)Nc1nc(OCC(F)(F)F)cnc1/C=C\c1ccccc1
  NPYLR7 agonist: -35.8
  NPYLR7 agonist max-min: -38.9

Other results follow.
The line under a structure holds: NPYLR7 agonist | NPYLR7 agonist max-min
- COc1ccc(/C=C2\Oc3c(ccc4c3CN(CC3CCCO3)CO4)C2=O)cc1 (centres undefined)
    63.7* | 57.9*
- COc1ccc(-c2[nH]ncc2CN2CCCC(C(=O)c3ccccc3SC)C2)cc1 (centres undefined)
    6.8 | -6.6
- CC(=O)Nc1ccc(NC(=O)c2cc(=O)c(OCc3ccc(F)cc3)c[nH]2)cc1
    -0.8 | -1.4
- COCCn1c(C)c(C)n2c3c(=O)n(Cc4ccc(Cl)cc4)c(=O)n(C)c3nc12
    -1.2 | 21.6
- Cc1ncsc1CCC(=O)N1CCc2c([nH]c3ccccc23)C1C1CCCCC1 (centres undefined)
    16.6 | 4.1
- COc1ccc(CN2C(=O)N(CC(C)C)C3(CCN(CCC(C)c4ccc(C)o4)CC3)C2=O)cc1 (centres undefined)
    10.3 | 3.2
- Fc1ccc(C=NNc2ncc(C(F)(F)F)cc2Cl)c(F)c1
    21.8 | 23.8
- C#CCOC(=O)CCCC(=O)Nc1ccc([N+](=O)[O-])cc1
    -5.5 | -6.4
- Fc1ccc(CN2C[C@H](Oc3ccccn3)[C@H]3C[C@@H]2CC[C@H]3N2CCOCC2)cc1
    22.7 | 28.1
- COc1ccccc1S(=O)(=O)NC(C)c1ccc2ccccc2c1 (centres undefined)
    2.8 | -1.6
- CSc1cccc(C(N)c2cc(F)ccc2F)c1 (centres undefined)
    0.0 | -0.5
- CC(=O)NCc1ccc(C(=O)N(c2nc(C)cs2)C2CC2)cc1
    2.8 | -0.2
- O=C(Cn1ccc(=O)[nH]c1=O)Nc1cccc(COc2cccc(F)c2)c1
    5.5 | 4.1
- Cc1ccc(NC(=O)CSc2nc(=O)n3cccc(C)c3n2)c(C)c1
    11.9 | 9.2
- Cc1cc(C)cc(C(=O)Nn2cnc3c(cnn3C(C)(C)C)c2=O)c1
    4.1 | 2.9

The final four entries of the section above open the next one.
The line under a structure holds: NPYLR7 agonist | NPYLR7 agonist max-min
- CC(=O)NCc1ccc(C(=O)N(c2nc(C)cs2)C2CC2)cc1
    2.8 | -0.2
- O=C(Cn1ccc(=O)[nH]c1=O)Nc1cccc(COc2cccc(F)c2)c1
    5.5 | 4.1
- Cc1ccc(NC(=O)CSc2nc(=O)n3cccc(C)c3n2)c(C)c1
    11.9 | 9.2
- Cc1cc(C)cc(C(=O)Nn2cnc3c(cnn3C(C)(C)C)c2=O)c1
    4.1 | 2.9
- CCOC(=O)N1CCC(=Nn2c(CC)n[nH]c2=S)CC1
    -11.8 | -12.7
- OCCNc1cc(-c2ncccn2)c2cc[nH]c2n1
    5.0 | 2.9
- CCC(C(=O)Oc1ccc(-c2nc3ccccn3c2NC(C)(C)CC(C)(C)C)cc1OC)c1ccccc1 (centres undefined)
    0.0 | 9.8
- Cc1cccc(NC(=O)N(C)C(C)c2ccccc2O)c1 (centres undefined)
    -1.0&3.8 | -2.0&2.6
- O=S(=O)(c1ccc(Br)s1)N1CCCCC1c1nc2ccccc2s1 (centres undefined)
    0.5 | 29.2
- Cc1cc(C)cc(NC(=O)Cn2nc(-c3ccco3)oc2=O)c1
    -3.1 | -5.4
- CC(=O)C(C)n1c(CN2CCOCC2)nc2c1c(=O)[nH]c(=O)n2C (centres undefined)
    0.5 | -1.6
- O=C(COc1ccc(F)cc1)OCc1cc(-c2cc3ccccc3o2)on1
    -1.9 | -2.0
- CCOc1ccc(C(=O)Nc2nc(-c3ccc(Cl)cc3)cs2)cc1
    -4.5 | -8.9
- COC(=O)c1cc(-c2cccs2)nc2c1c(C)nn2C1CCS(=O)(=O)C1 (centres undefined)
    9.6 | 4.7
- CCOc1ccc2nc(S(=O)(=O)NC(=O)C3(C)CCN3C(=O)CCc3ccccc3)sc2c1 (centres undefined)
    6.4 | 3.6
- Cc1cc(-n2c(SCC(=O)O)nnc2-c2sccc2C)n(C)n1
    1.8 | 17.9
- Cc1cccc(C(=O)N2CCC(n3cnc4cc(C(F)(F)F)ccc43)CC2)c1
    1.4 | -1.7
- CC(c1nnnn1-c1ccccc1)N(C)CCOc1ccc(O)cc1 (centres undefined)
    1.2 | -0.1
- CS(=O)(=O)CCC(=O)Nc1ccc(Cl)cc1-n1cccc1
    16.0 | 13.8

More results:
The line under a structure holds: NPYLR7 agonist | NPYLR7 agonist max-min
- COc1ccc(CN(C=O)/C=C2\Sc3ccccc3C2=O)cc1OC
    -5.7 | -7.8
- COc1ccc(CCNC(=O)c2ccccc2N2CCC(NC(=O)c3ccc(Cl)cc3Cl)CC2)cc1OC
    0.1 | -0.3
- CCOC(=O)C1=C(C)NC2=C(C(=O)CC(c3ccc(OC)cc3)C2)C1c1cccc([N+](=O)[O-])c1 (centres undefined)
    7.0 | 6.4
- CCCc1[nH]n(-c2ccc([N+](=O)[O-])cc2)c(=O)c1C=NCCCN(CC)CC
    -19.5 | -21.4
- NC(=O)Cc1cc(Br)c(-c2ccc(N)cc2)s1
    -1.7 | -2.6
- C#CCOCC(O)CN(CCN1CCOCC1)Cc1cc(C)ccc1C (centres undefined)
    19.9 | 23.2
- CCS(=O)(=O)c1ccc(CC(=O)Nc2ccc3c(c2)C(=O)NC3=O)cc1
    6.3 | 0.6
- CCOC(=O)C1(Cc2ccc(F)cc2F)CCCN(C(=O)Nc2ccc3c(c2)OCO3)C1 (centres undefined)
    5.2 | 2.9
- COCCN(CC(=O)Nc1cc(C(C)(C)C)nn1-c1ccc(C)cc1C)C(=O)Nc1cccc(Br)c1
    -0.2 | 3.0
- CCCCCN(CC(=O)Nc1cc(-c2ccccc2)nn1-c1ccccc1)C(=O)c1ccc(Br)cc1
    5.1 | 6.9
- O=C(OCCN1CCOC1=O)c1cc(-c2ccc(Br)cc2)n[nH]1
    10.4 | 6.8
- O=C(C[n+]1ccc(Cc2ccccc2)cc1)c1cccc([N+](=O)[O-])c1
    -3.8 | -6.7
- CCCCOC(=O)C(CCCCN1C(=O)c2ccccc2C1=O)N1C(=O)c2ccccc2C1=O (centres undefined)
    -1.2 | -3.5
- CCN(CC)CCNC(=O)NC1CC(=O)N(c2ccc(OC)c(OC)c2)C1 (centres undefined)
    -17.3 | -12.4
- COc1ccc(C2CCCCN2C(=O)c2ccc(-n3cccc3)nc2)cc1 (centres undefined)
    6.9 | 9.8

2 successive entries from above, quoted:
The line under a structure holds: NPYLR7 agonist | NPYLR7 agonist max-min
- COc1ccc(CN(C=O)/C=C2\Sc3ccccc3C2=O)cc1OC
    -5.7 | -7.8
- COc1ccc(CCNC(=O)c2ccccc2N2CCC(NC(=O)c3ccc(Cl)cc3Cl)CC2)cc1OC
    0.1 | -0.3

Next part.
The line under a structure holds: NPYLR7 agonist | NPYLR7 agonist max-min
- O=C(CN1C(=O)NC2(CCCc3sccc32)C1=O)c1ccc[nH]1 (centres undefined)
    -0.1 | 2.3
- CN(C)CCNC(=O)c1nn(-c2ccccc2F)c(=O)n(Cc2ccccc2F)c1=O
    11.8 | 15.9
- Cc1ccc(NC(=O)CSc2cn(CC(=O)N3CCOCC3)c3ccccc23)cc1Cl
    -9.6 | -13.7
- COCCCNc1nccc2[nH]c(-c3ccccc3Cl)nc12
    -6.2 | -12.2
- C[C@@H](NC(=O)Nc1ccc(Br)cc1Cl)C(=O)N1CCC(C(=O)N2CCOCC2)CC1
    32.4 | 31.1
- COc1cc(/C=C2/SC(=Nc3ccccc3)NC2=O)cc(OC)c1
    7.3 | 1.0
- Nc1ccc2oc(-c3cncc(Br)c3)nc2c1
    -0.9 | -4.0
- Cc1ccc(C2(O)CCN(C(=O)CCn3cnnn3)CC2)nc1
    -3.9 | -7.3
- Cc1cc(C)c(NC(=O)c2ccc(CN3CCCC3C)cc2)c(C)n1 (centres undefined)
    7.1 | 5.1
- COc1cccc(C(=O)NCC2c3cc(OC)c(OC)cc3CCN2Cc2cccc(F)c2)c1 (centres undefined)
    -0.5 | -1.8
- O=C(c1cn(CCc2ccccc2)nn1)N1CCC(C2CCCCC2)C1 (centres undefined)
    -11.3 | -12.0
- CNC(=O)CN(CC1CC1)[C@H]1C[C@H]2CCOC[C@H]2C1
    3.9 | 13.4
- CN(CCN1C(=O)c2ccccc2C1=O)CC(=O)Nc1cccc(F)c1
    9.7 | 2.8
- Cc1cccn2c(=O)c3cc(C(=O)NCC4CCCO4)sc3nc12 (centres undefined)
    7.6 | 3.3
- CCC(C(=O)N(CC(=O)N1CC(=O)N(c2cccc(Cl)c2C)C1)Cc1ccco1)c1ccccc1 (centres undefined)
    8.9 | 7.5

Carrying on:
The line under a structure holds: NPYLR7 agonist | NPYLR7 agonist max-min
- c1ccc(CSc2ccc(-c3ccc(-n4ccnc4)cc3)nn2)nc1
    -12.8 | -12.2
- c1ccc(Oc2cccc(CSc3nnc(-c4cc(-c5ccccc5)nc5ccccc45)n3CC3CCCO3)c2)cc1 (centres undefined)
    2.8 | 14.8
- Cc1c(-c2ccc(Cl)cc2)n[nH]c1C(=O)N1CCCC(O)(CN(C)C)C1 (centres undefined)
    -4.9 | -11.6
- CN1CCc2cc(C(CNS(=O)(=O)c3cccs3)N3CCCCC3)ccc21 (centres undefined)
    1.5 | 3.4
- CC(C)COC1(C)OC(=N)C(C#N)=C1C(C#N)C#N (centres undefined)
    1.0 | 44.0
- COC(=O)N[C@H](C(=O)Nc1cc(C(N)=O)n(C)c1)C(C)C
    4.9 | 1.3
- Cc1cc(-n2c(C)cc(CNCCCN3CCCC3=O)c2C)no1
    10.6 | 10.1
- COc1ccc(OCc2nc(CSc3nnc(C)s3)cs2)cc1
    1.0 | 8.1
- C=C(C)COc1cccc(C(=O)N(C)C(C)c2nccs2)c1 (centres undefined)
    4.4 | 4.8
- CNC(=O)C1(NC(=O)/C=C/c2ccccc2Cl)CCCCC1
    6.1 | 2.2
- O=C(c1coc(COc2cccc(C(F)(F)F)c2)n1)N1CCN2CCCC2C1 (centres undefined)
    -1.5 | -6.1
- c1nc(N2CCOCC2)c2nc3n(c2n1)CCCCC3
    4.4 | -0.2
- COc1cccc(C(CN2CCN(S(=O)(=O)c3ccc(C(F)(F)F)cc3)CC2)OCc2cccc(Cl)c2)c1 (centres undefined)
    25.4 | 13.6
- CN=c1scc(-c2c(-c3ccccc3)n(C)c3ccccc23)n1C
    -1.5&23.0 | -8.8&9.4
- CN1C[C@]2(C)[C@H](c3ccccc31)[C@@H](CO)CN2S(=O)(=O)c1cccs1
    -0.4 | 8.1
- CCc1c(C)nc(-n2nc(C)cc2NC(=O)Cc2ccc(OC)c(OC)c2)[nH]c1=O
    8.0 | 1.7
